HSD17B inhib: qHTS Assay for Inhibitors of HSD17B4, hydroxysteroid (17-beta) dehydrogenase 4 | recombinant HSD17B10, NADH fluorescence kinetic; many of its hits are not listed in these tables | hit rate 7.6% among 75,000 | 3-hydroxyacyl-CoA dehydrogenase type-2 (Homo sapiens), Q99714 | Potency, µM (top dose mostly 57.1 µM), for the others: at the highest dose activity change, negative = inhibition, most hits filed as inhibitors; active = well fitted inhibition curve with a large enough effect; inconclusive = small, poorly fitted or top-dose-only effect; inactive = no such curve, though single readings can be large or run the other way;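 note: the protocol describes HADH2 (HSD17B10) and not the HSD17B4 of the title; nearly all actives have a fitted effect of over 70% in size; most hits overshoot -100% by far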
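20 nM HADH2, pH 9.0 Tris/Tween; cpd preinc 15 min RT; start w/ 1 mM NAD+ + 90 uM b-hydroxybutyryl-CoA; kinetic fluor ex360/em450 q30s x 4 min; delta last-first.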
An asterisk follows results filed as active; ? = inconclusive; [ ] = remark or other dose. % is set by controls: 0 for no effect and ±100 for the full control effect; potency is the fitted concentration of half-maximal effect. Not all compounds are listed. The share of hits here may be higher or lower than overall.

molecule | HSD17B inhib
O=C(c1cc(O)c(O)c([N+](=O)[O-])c1)c1ccccc1F | ?
CCc1c(C)nc(N)n2c(SCC(=O)Nc3ccccc3OC)nnc12 | 8.9%
C[N+](C)(CCCCCC[N+](C)(C)CCCN1C(=O)c2ccccc2C1=O)CCCN1C(=O)c2ccccc2C1=O | 1.6%
Cc1cc(NS(=O)(=O)c2ccc(NC(=O)Cc3cccs3)cc2)no1 | -6.1%
Cc1noc(C)c1C(=O)NCc1ccco1 | ?
COc1ccc(NC(=O)CS(=O)CC(=O)Nc2ccc(OC)c(OC)c2)cc1 (stereo unspecified) | 5.6%
COc1ccc(CCNC(=O)c2cccnc2)cc1OC | -13.4%
COC(=O)CSc1nnc(SCc2ccccc2)s1 | 0.1%
CCCCn1c(SCC(=O)NCc2ccco2)nnc1-c1ccoc1C | ?
CCOC(=O)C1=C(C)Nc2ncnn2C1c1cc(OC)ccc1OC (stereo unspecified) | 0.8%
O=C(NCc1cccs1)c1cc(-c2cccc(Cl)c2)on1 | -1.6%
O=C(Nc1nnc(-c2ccccc2Cl)o1)c1ccco1 | -1.0%
COc1ccc(C)cc1N(CC(=O)Nc1cccc(N(C)S(C)(=O)=O)c1)S(C)(=O)=O | 3.9%
CCOC(=O)N1CCN(CC(=O)c2c(C)[nH]c3ccccc23)CC1 | -0.6%
CN1CCC(NC(=O)Cc2c(F)cccc2Cl)CC1 | 6.7%
Cc1ccc(C(N)=S)c(C)c1 | 0.6%
COc1ccc(C(=O)N2CCN(C3CCC(c4ccccc4)CC3)CC2)cc1OC (stereo unspecified) | 11.1%
Cn1cccc1C(=O)N1CCC2(CCCN(Cc3ccccc3)C2)CC1 | 1.7%
O=C1C2CCCN2C(c2ccc(F)cc2)N1c1cccc(Cl)c1 (stereo unspecified) | 1.4%
O=c1cc(COn2nnc3ccc(C(F)(F)F)cc32)nc2sccn12 | 2.6%
O=c1c2ccccc2nnn1CSc1nnc(-c2cccnc2)n1-c1ccccc1F | 1.2%
CCN1CCN(C(=O)c2cc3nc(-c4ccccc4)cc(C(F)(F)F)n3n2)CC1 | 3.9%
Cc1nc(CCNC(=O)COc2ccccc2)cs1 | 4.9%
Cc1cccc(N2CCN(C(=O)Cc3c(C(=O)O)[nH]c4ccc(Cl)cc34)CC2)c1C | -22.9%
CN(C)CCNc1nc2c(c(=O)n(C)c(=O)n2C)n1C | 5.3%[11.4 µM]

Carrying on.
molecule | HSD17B inhib
Cc1cccc(OCC(O)CN2C(C)(C)CC(O)CC2(C)C)c1C (stereo unspecified) | -5.3%
c1ccc(N2CC[N+]3(CCCC3)CC2)nc1 | -1.7%
COc1ccc(CCNC(=O)C2CC2)cc1OC | 8.5%
Cc1sc2ncnc(SCC#N)c2c1C | -8.7%
C=CCn1c(-c2ccccc2)c[nH]c1=S | ?
CCOC(=O)c1c(C)c(C(=O)NCc2cccnc2)c(C)n1C | 6.7%
CCc1cccc(C)c1NC(=O)CSc1nnc(-c2cc3cc(Br)ccc3o2)n1CC | 31.6µM*
Cc1noc(C)c1S(=O)(=O)N1CCN(Cc2ccc3c(c2)OCO3)CC1 | -0.6%
COc1ccc(NCc2c(O)ccc3ccccc23)cc1 | ?
CCOC(=O)C1=C(C)N(C)C(=O)NC1c1ccccc1OC (stereo unspecified) | 2.2%
C(=C\c1ccccc1)/CSc1nnc(-c2ccncc2)n1Cc1ccco1 | ?
Cc1cccc2cc(CN(CC3CCCO3)C(c3nnnn3Cc3ccco3)C(C)C)c(=O)[nH]c12 (stereo unspecified) | 25.1µM*
CCN(CC)S(=O)(=O)c1ccc(OC(C)C)nc1 | 1.4%
Cc1ccc(S(=O)(=O)Cc2ccc(C(=O)NCCCN3CCN(C)CC3)o2)cc1 | -10.6%
O=S(=O)(c1ccccc1)c1nc(-c2ccco2)oc1N1CCOCC1 | -17.5%
CCCC(=O)Nc1ccc(N2CCN(C(=O)CCC)CC2)cc1 | -8.5%
Fc1cccc(NCc2cn3ccccc3n2)c1 | 1.8%
CCCCn1c(S(=O)(=O)O)nc2ccccc21 | -21.1%
O=C(Cn1cc2c(n1)CCCCC2)NC1CCN(Cc2ccccc2)CC1 | 6.5%
Cc1ccccc1Nc1nnc(SCC(=O)NC(=O)NCc2ccco2)s1 | ?
CCOC(=O)N1CCC(NC(=O)c2ccc3c(c2)N(CC)CCS3)CC1 | 20µM*
CCSc1nc2cc(OC)c(OC)cc2c(=O)n1CC | 2.6%
N#Cc1ccc(CN2CCC3(CC2)CCN(C(=O)c2cc(C(F)(F)F)cc(C(F)(F)F)c2)CC3)cc1 | -0.5%
O=C(CSc1nc2ccsc2c(=O)n1NC(=O)c1ccccc1)Nc1nccs1 | 7.0%
COc1ccccc1C1C(C(N)=O)=C(C)Nc2nc(-c3ccccc3Cl)nn21 (stereo unspecified) | 3.9%

Following part
molecule | HSD17B inhib
CC(=O)c1cc2c(cc1NS(=O)(=O)c1ccc(C)cc1)OCCO2 | -7.3%
COc1ccc(CCNC(=O)CCCCn2c(=O)[nH]c3ccccc3c2=O)cc1OC | -6.0%
CCc1c(C)c2c(C)[nH]nc2oc1=O | -16.9%
O=C(NCc1ccco1)[C@@H]1CSC2c3ccccc3C(=O)N21 (stereo partly specified) | -1.8%
Cc1sc2ncnc(OCC(=O)c3ccc(S(=O)(=O)N4CCCC4)cc3)c2c1C | -1.8%
Cc1ccc(Cl)cc1N1CCN(C(=O)Cn2ccc3ccccc3c2=O)CC1 | -26.4%
Cc1cccc2cc(CN(Cc3cccs3)Cc3nnnn3Cc3ccccc3)c(=O)[nH]c12 | -8.8%
COc1ccccc1N(CC(=O)NC(C)(C)C)C(=O)Cn1nnc(-c2ccc(C)o2)n1 | 1.2%
COc1ccc(S(=O)(=O)N2CCN(Cc3cccc(Cl)c3)CC2)cc1 | -4.2%
COc1ccc2cc3cc(C(=O)NCC4CCCO4)oc3nc2c1 (stereo unspecified) | 15.8µM*
COc1ccc(NC(=O)N2CC[C@@]3(CCCN(C(=O)c4ccc(OC)cc4)C3)C2)cc1 | 3.2%
Cc1nn(C)c(C)c1S(=O)(=O)NCc1cccs1 | -18.8%
Cc1cc(C)n(-c2nc3c(c(=O)[nH]c(=O)n3C)n2CC(O)COc2ccccc2C)n1 (stereo unspecified) | -6.1%
O=C(O)c1cnccn1 | -1.6%
Cn1cccc1C(=O)N1CCC2(CCCN(Cc3ccc(C#N)cc3)C2)CC1 | 1.5%
CCOC(=O)c1ccc(NC(=O)CSc2ncccn2)cc1 | -0.4%
CCCCn1nnnc1SCC(=O)Nc1sc2c(c1C#N)CCCC2 | 2.5%
Brc1ccc(-c2nnc3sc(CN4CCN(c5ccccc5)CC4)cn23)cc1 | -7.9%
CSCCC(Nc1ncnc2ccc(Br)cc12)C(=O)O (stereo unspecified) | -5.0%
Cc1onc(-c2ccccc2)c1C(=O)Nc1ccccc1N1CCOCC1 | -18.1%
COc1ccc2c(Cl)c(C(N)=O)sc2c1 | -2.7%
COCCNC(=O)C(c1ccco1)N(C(=O)Cn1nnc2ccccc21)c1cccc(C)c1C (stereo unspecified) | 4.1%
CCOC(=O)c1cccc(NC(=O)c2cnccn2)c1 | 5.1%
O=C(COc1ccccc1)NCCSc1ccccc1 | 1.1%
O=S(=O)(O)c1ccc2c(N=Nc3cccc4ccccc34)c(O)c(S(=O)(=O)O)cc2c1 | -23.9%[11.4 µM]

(more compounds)
Molecule | HSD17B inhib
O=C(NCc1ccccn1)Nc1cccc(Cl)c1 | 5.6%
C[C@H]1CC[C@]2(OC1)O[C@@H]1C[C@@H]3[C@@H]4CC[C@H]5C[C@@H](O)CC[C@]5(C)[C@@H]4CC(=O)[C@@]3(C)[C@H]1[C@@H]2C | -1.6%[25.6 µM]
O=C(O)CCSC1=NCCN1 | -2.2%[11.4 µM]
CC1=C(C(=O)OCC(C)C)C23C(=O)c4ccccc4C2(O1)OC(N)=C3C#N (stereo unspecified) | 2.7%
N#CC(C#N)=C(N)/C(C#N)=C/c1ccc(O)cc1 | ?
CCOc1ccccc1C(=O)NC1CCN(Cc2nnnn2C2CCCC2)CC1 | 3.6%
COc1cccc(-c2cc(=O)c3cc(O)ccc3o2)c1 | 24.0%
CO[C@H]1[C@@H](OC(N)=O)[C@H](O)[C@@H](Oc2ccc3c(O)c(NC(=O)c4ccc(O)c(CC=C(C)C)c4)c(=O)oc3c2C)OC1(C)C | -1.0%[25.6 µM]
Cc1ccc(C(=O)C2=C(O)C(=O)N(CCCn3ccnc3)C2c2ccc(OC(C)C)cc2)o1 (stereo unspecified) | -6.0%
CS(=O)(=O)Nc1cccc(-c2ccc3ncnc(NCc4cccs4)c3c2)c1 | -1.8%

Copied from the list.
Under HSD17B inhib, `C[C@H]1CC[C@]2(OC1)O[C@@H]1C[C@@H]3[C@@H]4CC[C@H]5C[C@@H](O)CC[C@]5(C)[C@@H]4CC(=O)[C@@]3(C)[C@H]1[C@@H]2C` reads -1.6%[25.6 µM]
Under HSD17B inhib, `CCOc1ccccc1C(=O)NC1CCN(Cc2nnnn2C2CCCC2)CC1` reads 3.6%

(listing goes on)
Molecule | HSD17B inhib
[O-][n+]1ccc(C2CC2)cc1 | -7.6%
O=C(O)CCSCc1ccccc1 | 10.3%[11.4 µM]
Cc1sc2c(c1C)CN(Cc1ccco1)CN2C(=O)c1ccccc1 | 1.2%
Cc1cc(-n2c(C)cc(C(=O)CSc3nnnn3-c3ccc(Cl)cc3)c2C)no1 | 0.2%
O=C(COC(=O)c1ccccn1)Nc1cccc(Cl)c1 | 1.1%
O=C(Nc1ccc2c(c1)OCO2)c1c(F)c(F)c(F)c(F)c1F | 5.9%
NS(=O)(=O)c1cc2c(cc1Cl)NC=NS2(=O)=O | -2.9%
O=c1[nH]c(NCc2ccccc2)nc2c1CCCC2 | 3.5%
CCOC(=O)c1ccoc1CSCc1ccc(C(=O)OC)o1 | ?
OC(COc1ccc2ccccc2c1)CN1CCN(c2ccc(F)cc2)CC1 (stereo unspecified) | 0.0%

Overlap with the part before: 5 compounds, then new ones.
Molecule | HSD17B inhib
O=C(Nc1ccc2c(c1)OCO2)c1c(F)c(F)c(F)c(F)c1F | 5.9%
NS(=O)(=O)c1cc2c(cc1Cl)NC=NS2(=O)=O | -2.9%
O=c1[nH]c(NCc2ccccc2)nc2c1CCCC2 | 3.5%
CCOC(=O)c1ccoc1CSCc1ccc(C(=O)OC)o1 | ?
OC(COc1ccc2ccccc2c1)CN1CCN(c2ccc(F)cc2)CC1 (stereo unspecified) | 0.0%
CCSc1nnc(NC(=O)CSc2nc3c(c(=O)n2-c2ccccc2OC)SCC3)s1 | -19.4%
O=C(O)CSCC(=O)c1ccccc1 | 4.1%
COC(=O)C1CCN(C(=O)c2c(-c3ccccc3Cl)noc2C)CC1 | -3.4%
O=C(Cc1c(O)c2ccccc2[nH]c1=O)NCc1ccc(F)cc1 | 31.6µM*
COc1cccc(N2C(=O)C3CC=C(Cl)CC3C2=O)c1 (stereo unspecified) | 1.9%
Cc1ccccc1-c1cc(-c2ccccc2O)n[nH]1 | -21.6%
Cc1c(F)cccc1NC(=O)CCC(=O)O | -5.7%
COc1cccc(C(=O)NCc2n[nH]c(=S)n2-c2cccc(C)c2)c1 | -7.6%
O=C1CC(c2ccc(Cl)cc2)n2nc(N3C(=O)c4ccccc4C3=O)nc2N1 (stereo unspecified) | 4.8%
O=C(c1ccccc1S(=O)(=O)NCc1ccccc1)N1CCCC1 | -5.6%

Other structures.
Molecule | HSD17B inhib
CCCc1cc(=O)[nH]c(SCC(=O)N(C)CC(=O)Nc2ccccc2CC)n1 | -3.5%
COc1cccc(C(=O)Nc2ccc(C(=O)O)cc2)c1 | 2.7%
COc1cccc(NC(=O)CNC(=O)c2cccs2)c1 | 2.2%
O=C(Cn1cnc2ccccc2c1=O)OCC(=O)c1ccc2c(c1)OCCO2 | 1.2%
COc1cc(NC(=O)Cc2cccs2)cc(OC)c1 | -0.1%
CNC(=O)Nc1cccc(C(F)(F)F)c1 | -10.9%
CN(C)c1nc(-c2ccc3c(c2)OCO3)nc2ccccc12 | ?
CCCc1nc(N)c(C#N)c(N)c1C#N | -1.9%
N#CC1=C(SCC(=O)NCc2ccccc2)NC(=O)CC1c1ccco1 (stereo unspecified) | -5.2%
CCCCn1c(SCC(=O)Nc2cc(NC(=O)c3ccco3)ccc2C)nc2ccccc2c1=O | 25.1µM*

Other structures.
Molecule | HSD17B inhib
CCOc1ccc2[nH]c(O)c(NC(C)=O)c2c1 | 2.7%
CCCCNC(=O)c1ccc2c(c1)ncn2C1CCCCC1 | -2.3%
CCn1c(SCC(=O)n2c(C)c(C)c3ccccc32)nnc1-c1ccco1 | 4.9%
CCCOc1cc(C)c(S(=O)(=O)N2CCN(C)CC2)cc1C | 1.1%
CC(C)CCNc1ncnc2c1nnn2Cc1ccccc1Cl | -6.8%
O=C(CC1Nc2ccccc2NC1=O)c1ccccc1 (stereo unspecified) | 0.1%
CC1(C)CC(N2CCC(=O)N(C3CC(C)(C)NC(C)(C)C3)C2)CC(C)(C)N1 | -6.2%
C=CC(C1=CC(=O)C(OC)=CC1=O)c1ccccc1 (stereo unspecified) | ?
COCCN1C(=O)C(=O)/C(=C(/O)c2cccc(S(=O)(=O)N(C)C)c2)C12C(=O)N(C)c1ccccc12 (stereo unspecified) | 1.7%
Cc1ncc(CSC(=N)N)n1Cc1ccccc1 | 13.5%[11.4 µM]
CN(C)C(=O)c1ccc(-c2cc(NCc3ccccc3)ncn2)cc1 | 25.1µM*
CC(=O)c1ccc(OCC(O)CN2C(C)CCCC2C)cc1 (stereo unspecified) | 10.6%

Grouped by structure: those above containing a CF3 group.
Molecule | HSD17B inhib
O=c1cc(COn2nnc3ccc(C(F)(F)F)cc32)nc2sccn12 | 2.6%
CCN1CCN(C(=O)c2cc3nc(-c4ccccc4)cc(C(F)(F)F)n3n2)CC1 | 3.9%
N#Cc1ccc(CN2CCC3(CC2)CCN(C(=O)c2cc(C(F)(F)F)cc(C(F)(F)F)c2)CC3)cc1 | -0.5%
CNC(=O)Nc1cccc(C(F)(F)F)c1 | -10.9%
